Compound activity from PubChem.
Ecoli rRNA inh = selective bacterial rRNA inhibition in E. coli. GFP signal change (wild-type ribosome), % (no concentration beside the values). E. coli WT GFP vs humanized-ribosome RFP mutants, fluorescence, 24 h; stronger effect = lower value; DMSO median 0, no signal -100. hit rate 1.6% among 350,000. AID 720706;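 active = significant combined selectivity score with lowered wild-type GFP, culture density cut under 30%, mutant RFP and density less affected; inactive = any of these conditions unmet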; also: one replicate is shown; some compounds called inactive have numbers as strong as hits
Ecoli rRNA inh OD600 = further read-out of Ecoli rRNA inh, marked with its call; OD600 change, %; measured here: OD600 growth;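 optical density of the mix in the first replicate; 0 = DMSO median and -100 = no signal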
Ecoli rRNA inh RFP = further read-out of Ecoli rRNA inh, marked with its call; RFP signal change, %; measured here: RFP humanized mutant strains;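 first replicate; 0 = DMSO median and -100 = no signal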
* marks the source's active call; other numbers are inactive results. An excerpt; the hit share may differ from the screen's.

Sample of the layout, four compounds:
COc1ccc(S(=O)(=O)N2CCCCN3[C@H](C2)[C@@H](c2ccc(C#CC4CC4)cc2)[C@@H]3CO)cc1 was read as Ecoli rRNA inh 2, Ecoli rRNA inh OD600 5 and Ecoli rRNA inh RFP 3.0.
`CCCC#Cc1ccc([C@H]2[C@H]3CN(C(=O)Nc4cc(F)ccc4F)CC(=O)N3[C@H]2CO)cc1` gave Ecoli rRNA inh -18, Ecoli rRNA inh OD600 -50 and Ecoli rRNA inh RFP 11.
C/C=C/c1cnc2c(c1)C(=O)N([C@H](C)CO)C[C@H](C)[C@@H](CN(C)C(=O)C1CC1)O2 was read as Ecoli rRNA inh 5, Ecoli rRNA inh OD600 9 and Ecoli rRNA inh RFP -5.7.
Screening Cc1noc(C)c1NC(=O)Nc1ccc2c(c1)CC(=O)N([C@@H](C)CO)C[C@H](C)[C@@H](CN(C)Cc1ccc(C(F)(F)F)cc1)O2 returned Ecoli rRNA inh -9, Ecoli rRNA inh OD600 -44 and Ecoli rRNA inh RFP 13.

The listing, repeating the preview:
COc1ccc(S(=O)(=O)N2CCCCN3[C@H](C2)[C@@H](c2ccc(C#CC4CC4)cc2)[C@@H]3CO)cc1 was read as Ecoli rRNA inh 2, Ecoli rRNA inh OD600 5 and Ecoli rRNA inh RFP 3.0.
`CCCC#Cc1ccc([C@H]2[C@H]3CN(C(=O)Nc4cc(F)ccc4F)CC(=O)N3[C@H]2CO)cc1` gave Ecoli rRNA inh -18, Ecoli rRNA inh OD600 -50 and Ecoli rRNA inh RFP 11.
C/C=C/c1cnc2c(c1)C(=O)N([C@H](C)CO)C[C@H](C)[C@@H](CN(C)C(=O)C1CC1)O2 was read as Ecoli rRNA inh 5, Ecoli rRNA inh OD600 9 and Ecoli rRNA inh RFP -5.7.
Screening Cc1noc(C)c1NC(=O)Nc1ccc2c(c1)CC(=O)N([C@@H](C)CO)C[C@H](C)[C@@H](CN(C)Cc1ccc(C(F)(F)F)cc1)O2 returned Ecoli rRNA inh -9, Ecoli rRNA inh OD600 -44 and Ecoli rRNA inh RFP 13.
For CO[C@@H]1CN(C)C(=O)c2ccc(NC(=O)C3CC3)cc2OC[C@@H](C)N(CC2CCOCC2)C[C@@H]1C the results were Ecoli rRNA inh 1, Ecoli rRNA inh OD600 0 and Ecoli rRNA inh RFP 0.7.
`C/C=C/c1ccc([C@H]2[C@@H](CO)N(C(C)=O)[C@H]2CN(C(C)=O)C2CCCC2)cc1` gave Ecoli rRNA inh -5, Ecoli rRNA inh OD600 -10 and Ecoli rRNA inh RFP 1.3.
Cc1ccc(S(=O)(=O)Nc2ccc3c(c2)CC(=O)N([C@H](C)CO)C[C@H](C)[C@H](CN(C)C(=O)Nc2ccc(F)cc2)O3)cc1 was read as Ecoli rRNA inh 7, Ecoli rRNA inh OD600 12 and Ecoli rRNA inh RFP 1.0.
CC(C)NC(=O)Nc1ccc2c(c1)C(=O)N([C@@H](C)CO)C[C@H](C)[C@H](CN(C)S(=O)(=O)c1cccs1)O2 was read as Ecoli rRNA inh 0, Ecoli rRNA inh OD600 0 and Ecoli rRNA inh RFP -0.3.
COc1ccc2c3c([nH]c2c1)[C@@H](CO)N(C(=O)CN(C)C)CC31CCN(Cc2ccccc2)CC1 was read as Ecoli rRNA inh 7, Ecoli rRNA inh OD600 8 and Ecoli rRNA inh RFP 0.9.
`CC(=O)NC[C@H]1[C@@H](c2ccc(-c3cccnc3)cc2)[C@@H](CO)N1C(=O)C1CCC1` gave Ecoli rRNA inh 1, Ecoli rRNA inh OD600 7 and Ecoli rRNA inh RFP -3.7.
Screening CN(C)CC#Cc1ccc([C@H]2[C@H]3CN(C(=O)Cc4cccnc4)CC(=O)N3[C@H]2CO)cc1 returned Ecoli rRNA inh 7, Ecoli rRNA inh OD600 20 and Ecoli rRNA inh RFP -3.7.
`O=C(C1CCCC1)N1CC(=O)N2[C@H](CO)[C@@H](c3ccc(-c4ccccc4F)cc3)[C@@H]2C1` gave Ecoli rRNA inh -12, Ecoli rRNA inh OD600 -49 and Ecoli rRNA inh RFP -0.9.
`O=C(Nc1cc(F)ccc1F)N1CCCCN2[C@@H](CO)[C@H](c3ccc(-c4cccnc4)cc3)[C@@H]2C1` gave Ecoli rRNA inh -24*, Ecoli rRNA inh OD600 -2.0* and Ecoli rRNA inh RFP -1.4*.
For COc1ccc([C@H]2C/C=C\C[C@H](c3ccc4c(c3)OCO4)NC(=O)[C@H](c3ccccc3)CC(=O)N2)c(OC)c1 the results were Ecoli rRNA inh 3, Ecoli rRNA inh OD600 11 and Ecoli rRNA inh RFP -0.1.
For C[C@@H]1CN([C@@H](C)CO)S(=O)(=O)c2ccc(-c3ccc(F)cc3)cc2O[C@H]1CN(C)C(=O)Nc1ccc(F)cc1 the results were Ecoli rRNA inh -1, Ecoli rRNA inh OD600 -16 and Ecoli rRNA inh RFP 5.2.
`CCCN1C[C@H](C)[C@H](OC)CN(C)C(=O)c2cc(NC(=O)C3CCC3)ccc2OC[C@@H]1C` gave Ecoli rRNA inh 0, Ecoli rRNA inh OD600 16 and Ecoli rRNA inh RFP 0.2.
Screening C[C@@H]1CCCCO[C@H](CN(C)S(=O)(=O)c2ccc(F)cc2)[C@H](C)CN([C@H](C)CO)C(=O)c2cc(NS(C)(=O)=O)ccc2O1 returned Ecoli rRNA inh -1, Ecoli rRNA inh OD600 -4 and Ecoli rRNA inh RFP 4.2.
For C[C@H](CO)N1C[C@H](C)[C@@H](CN(C)Cc2cccc(C(F)(F)F)c2)OCc2ccccc2-c2ccccc2C1=O the results were Ecoli rRNA inh -21, Ecoli rRNA inh OD600 -33 and Ecoli rRNA inh RFP 12.
For Cc1ccc(S(=O)(=O)N(C)C[C@H]2Oc3c(NS(=O)(=O)c4cn(C)cn4)cccc3C(=O)N([C@H](C)CO)C[C@@H]2C)cc1 the results were Ecoli rRNA inh 4, Ecoli rRNA inh OD600 3 and Ecoli rRNA inh RFP -2.1.
CC(=O)Nc1ccc2c(c1)C(=O)N(C)C[C@@H](C)[C@H](CN(C)S(C)(=O)=O)O2 was read as Ecoli rRNA inh 0, Ecoli rRNA inh OD600 4 and Ecoli rRNA inh RFP -1.0.
`C[C@@H]1CN([C@@H](C)CO)C(=O)CCCn2cc(nn2)CO[C@H]1CN(C)Cc1ccc(Oc2ccccc2)cc1` gave Ecoli rRNA inh 1, Ecoli rRNA inh OD600 -8 and Ecoli rRNA inh RFP -0.5.
`C[C@@H]1CCCCO[C@@H](CN(C)Cc2ccc(Cl)c(Cl)c2)[C@H](C)CN([C@H](C)CO)C(=O)c2cc(NC(=O)Cc3ccccc3)ccc2O1` gave Ecoli rRNA inh 1, Ecoli rRNA inh OD600 -4 and Ecoli rRNA inh RFP 6.4.
COc1cccc(CNC(=O)C[C@H]2C=C[C@@H](NC(=O)C3CCC3)[C@@H](CO)O2)c1 was read as Ecoli rRNA inh 1, Ecoli rRNA inh OD600 1 and Ecoli rRNA inh RFP -0.2.
Screening C[C@H](CO)N1C[C@H](C)[C@H](CN(C)C)OCCCC[C@H](C)Oc2ccc(NC(=O)c3ccccc3)cc2C1=O returned Ecoli rRNA inh 0, Ecoli rRNA inh OD600 3 and Ecoli rRNA inh RFP -0.4.
`CCCC(=O)Nc1ccc2c(c1)C(=O)N(C)[C@@H]1CC[C@@H](CC(=O)NCc3cccc(F)c3)O[C@@H]1CO2` gave Ecoli rRNA inh -4, Ecoli rRNA inh OD600 5 and Ecoli rRNA inh RFP -1.0.
Screening O=C1N[C@H](c2ccccc2)COCc2cn(nn2)CC[C@@H](Cc2ccc(C(F)(F)F)cc2)C(=O)N[C@H](c2ccccc2)COCc2cn(nn2)CC[C@H]1Cc1ccc(C(F)(F)F)cc1 returned Ecoli rRNA inh 0, Ecoli rRNA inh OD600 -1 and Ecoli rRNA inh RFP 2.2.
CC(=O)Nc1ccc2c(c1)C(=O)N(C)C[C@H](C)[C@H](CN(C)S(C)(=O)=O)O2 was read as Ecoli rRNA inh 0, Ecoli rRNA inh OD600 2 and Ecoli rRNA inh RFP -0.6.
For CCC(=O)N1C[C@H](C)[C@H](OC)CN(C)C(=O)c2ccc(NC(=O)c3cc(C)on3)cc2OC[C@H]1C the results were Ecoli rRNA inh 0, Ecoli rRNA inh OD600 -8 and Ecoli rRNA inh RFP -0.6.
CC(=O)Nc1ccc2c(c1)C(=O)N(C)C[C@@H](C)[C@@H](CN(C)C)O2 was read as Ecoli rRNA inh 0, Ecoli rRNA inh OD600 0 and Ecoli rRNA inh RFP -1.3.
`CC(C)NC(=O)Nc1ccc2c(c1)C(=O)N(C)C[C@H](C)[C@H](CN(C)C(=O)OC(C)(C)C)O2` gave Ecoli rRNA inh -3, Ecoli rRNA inh OD600 -2 and Ecoli rRNA inh RFP -1.3.
CCCN1C[C@@H](C)[C@@H](OC)CN(C)C(=O)c2cc(NC(=O)Nc3cccc(F)c3)ccc2OC[C@H]1C was read as Ecoli rRNA inh 0, Ecoli rRNA inh OD600 -5 and Ecoli rRNA inh RFP -2.2.
`C[C@H](CO)N1C[C@H](C)[C@H](CN(C)C(=O)C2CCC2)Oc2cc(-c3ccccc3)ccc2S1(=O)=O` gave Ecoli rRNA inh -12, Ecoli rRNA inh OD600 -21 and Ecoli rRNA inh RFP 2.2.
For CCC(=O)N1[C@H](CO)[C@H](c2ccc(-c3cccc(F)c3)cc2)[C@H]1CNC(C)=O the results were Ecoli rRNA inh -4, Ecoli rRNA inh OD600 -2 and Ecoli rRNA inh RFP 0.7.
For CCCN1C[C@@H](C)[C@@H](OC)CN(C)C(=O)c2cc(NC(=O)Nc3cccc(F)c3)ccc2OC[C@@H]1C the results were Ecoli rRNA inh -1, Ecoli rRNA inh OD600 3 and Ecoli rRNA inh RFP -1.5.
For CC[C@H]1CC=CC[C@H](C)Oc2ccccc2C(=O)N(C)[C@@H](C(C)C)C(=O)N1 (mixture of isomers) the results were Ecoli rRNA inh -4, Ecoli rRNA inh OD600 -7 and Ecoli rRNA inh RFP -1.6.
CCCNC(=O)[C@H]1[C@H](CO)[C@H]2Cn3c(ccc(-c4ccccc4F)c3=O)[C@@H]1N2CCC was read as Ecoli rRNA inh 1, Ecoli rRNA inh OD600 -3 and Ecoli rRNA inh RFP 0.2.
CC(=O)NC[C@H]1[C@@H](c2ccc(C3=CCCCC3)cc2)[C@@H](CO)N1C(=O)NC(C)C was read as Ecoli rRNA inh -2, Ecoli rRNA inh OD600 2 and Ecoli rRNA inh RFP -4.5.
CO[C@H]1CN(C)C(=O)c2ccc(NS(C)(=O)=O)cc2OC[C@H](C)N(Cc2ccccn2)C[C@H]1C was read as Ecoli rRNA inh -1, Ecoli rRNA inh OD600 5 and Ecoli rRNA inh RFP -0.3.
CN(C)C(=O)c1ccc(-c2ccc3c(c2)[C@H]2[C@H](CCN2C(=O)c2ccccc2F)[C@H](CO)N3)cc1 was read as Ecoli rRNA inh -5, Ecoli rRNA inh OD600 -5 and Ecoli rRNA inh RFP -5.8.
CCCNC(=O)N1C[C@@H]2N[C@H](C1)C2c1ccc(-c2cccnc2)cc1 (stereo partly specified) was read as Ecoli rRNA inh -19, Ecoli rRNA inh OD600 -1 and Ecoli rRNA inh RFP 11.
`C[C@H](O)C#Cc1ccc2c(c1)O[C@H](CN(C)CC1CC1)[C@@H](C)CN([C@H](C)CO)S2(=O)=O` gave Ecoli rRNA inh 4, Ecoli rRNA inh OD600 4 and Ecoli rRNA inh RFP 1.4.
CC(C)NC(=O)N(C)C[C@H]1Oc2c(cccc2[N+](=O)[O-])C(=O)N(C)C[C@@H]1C was read as Ecoli rRNA inh -1, Ecoli rRNA inh OD600 -3 and Ecoli rRNA inh RFP 1.1.
For CC(C)NC(=O)Nc1cccc2c1O[C@@H](CN(C)C(=O)OC(C)(C)C)[C@@H](C)CN(C)C2=O the results were Ecoli rRNA inh 3, Ecoli rRNA inh OD600 1 and Ecoli rRNA inh RFP 1.1.
Screening COc1ccc2c3c([nH]c2c1)[C@H](CO)NCC31CN(S(=O)(=O)c2ccccc2)C1 returned Ecoli rRNA inh -4, Ecoli rRNA inh OD600 -6 and Ecoli rRNA inh RFP 0.4.
C[C@H](CO)N1C[C@H](C)[C@H](CN(C)S(=O)(=O)c2cccs2)OCCCC[C@H](C)Oc2ccc(N(C)C)cc2C1=O was read as Ecoli rRNA inh -6, Ecoli rRNA inh OD600 -7 and Ecoli rRNA inh RFP 1.7.
C[C@H](CO)N1C[C@H](C)[C@H](CN(C)C(=O)C2CCC2)Oc2ncc(-c3ccncc3)cc2C1=O was read as Ecoli rRNA inh 2, Ecoli rRNA inh OD600 5 and Ecoli rRNA inh RFP 0.9.
For CO[C@H]1CN(C)C(=O)c2cc(NC(C)=O)ccc2OC[C@@H](C)N(CC2CCCCC2)C[C@H]1C the results were Ecoli rRNA inh 2, Ecoli rRNA inh OD600 10 and Ecoli rRNA inh RFP 1.1.
For C[C@H]1CN([C@@H](C)CO)S(=O)(=O)c2ccc(C#CCN(C)C)cc2O[C@H]1CN(C)C(=O)C1CC1 the results were Ecoli rRNA inh -1, Ecoli rRNA inh OD600 7 and Ecoli rRNA inh RFP 0.0.
Screening COc1cccc(S(=O)(=O)N(C)C[C@@H]2OCc3ccccc3-c3c(n(C)c4ccccc34)C(=O)N([C@@H](C)CO)C[C@H]2C)c1 returned Ecoli rRNA inh -1, Ecoli rRNA inh OD600 1 and Ecoli rRNA inh RFP -2.1.

A draw from above in order of SMILES length, low to high:
Screening COc1ccc2c3c([nH]c2c1)[C@H](CO)NCC31CN(S(=O)(=O)c2ccccc2)C1 returned Ecoli rRNA inh -4, Ecoli rRNA inh OD600 -6 and Ecoli rRNA inh RFP 0.4.
C[C@H](CO)N1C[C@H](C)[C@H](CN(C)C(=O)C2CCC2)Oc2ncc(-c3ccncc3)cc2C1=O was read as Ecoli rRNA inh 2, Ecoli rRNA inh OD600 5 and Ecoli rRNA inh RFP 0.9.
C[C@H](CO)N1C[C@H](C)[C@H](CN(C)S(=O)(=O)c2cccs2)OCCCC[C@H](C)Oc2ccc(N(C)C)cc2C1=O was read as Ecoli rRNA inh -6, Ecoli rRNA inh OD600 -7 and Ecoli rRNA inh RFP 1.7.
